Compound activity deposited in PubChem by National Center for Advancing Translational Sciences (NCATS).
VACV Venus inh: vaccinia inhibition (Venus reporter). 330,000 tested, 0.46% active. Potency, µM (top dose mostly 36.5 µM), for the others: at the top dose activity change, negative = inhibition, hits mostly inhibitors. Vaccinia virus Venus reporter expression, fluorescence. AID 720580; active means well fitted inhibition curve with a large enough effect; inconclusive means small, poorly fitted or top-dose-only effect; inactive means no such curve, though single readings can be large or run the other way; tested in A549 cells; further: nearly all actives have a fitted effect of over 30% in size; inactives centre near -10
VACV mCherry inh: inhibitors of vaccinia virus infection (mCherry reporter signal) | Vaccinia virus mCherry reporter infection, fluorescence; about a quarter of the inactives have no number | Potency, µM (doses to about 36.5 µM), for the others: top-dose activity change, negative = inhibition, hits mostly inhibitors | 310,000 tested, 0.63% active | AID 720579; active = well fitted inhibition curve with a large enough effect; inconclusive = small, poorly fitted or top-dose-only effect; inactive = no such curve, though single readings can be large or run the other way; tested in A549 cells; further: nearly all actives have a fitted effect of over 35% in size; inactives centre near -10
Active calls of the source: *; i = inactive; u = inconclusive; x = no result given; & = joins results of further samples; [ ] = dose if it differs, or a comment. On the % scale 0 is the no-effect control and ±100 the full control effect; potency means the concentration at half of the fitted maximal effect.

SMILES	VACV Venus inh	VACV mCherry inh
C=CCNC(C(=O)Nc1cccc(OC)c1)c1ccccc1 (stereo unspecified)	0%	-2%
Cc1ccc(-n2cnn(-c3ccc([N+](=O)[O-])cc3[N+](=O)[O-])c2=O)cc1	-7%	u
O=C(NCC1CCCO1)C1CCN(S(=O)(=O)c2cccc3nonc23)CC1 (stereo unspecified)	-4%	x
CCCCn1nc2cc(C(=O)NCC3CC3)ccc2c1OCC	-17%	4%
COc1ccc(-c2csc3ncn(-c4cccc(C)c4)c(=O)c23)cc1OC	-12%	-1%
CC1CCCCN1C(=O)Nc1ccccc1Cl (stereo unspecified)	-8%	i
COc1ccc(CSc2nnc(NC(C)=O)s2)cc1[N+](=O)[O-]	3%	i
O=C(CCC1CCCCC1)NCCS(=O)(=O)N1CCN(c2ccc(F)cc2)CC1	-23%	-12%
CCOC(=O)c1c(C)[nH]sc1=S	-11%	-19%
CCc1ccccc1-n1ncc(C(=O)Nc2ccccc2OC)c1C	-25%	-4%
COc1ccc(NC(=O)C(c2ccc(C)cc2)N(C)C(=O)c2cnccn2)cc1 (stereo unspecified)	-9%	-15%
CC(=O)NC(CCCN1C(=O)c2ccccc2C1=O)c1nnn(C)n1 (stereo unspecified)	-3%	-13%
COc1ccc(CCNC(=O)c2cnc(Cl)c(Cl)c2)cc1	-3%	-10%
CCn1cc(CN2CCC(n3nccc3NC(=O)c3cccc(F)c3)CC2)c(C)n1	u	u
CCCC(=O)Nc1cc(-c2nc3cccnc3s2)ccc1C	-7%	-15%
Cc1ccc(S(=O)(=O)c2cc3c(=O)n4ccccc4nc3n(C)c2=N)cc1	-11%	-6%
O=C(CC(SCCO)c1ccc2c(c1)OCO2)c1cccs1 (stereo unspecified)	-11%	-19%
O=C(O)c1ccc(/C=C/c2nc3sc4c(c3c(=O)[nH]2)CCC4)cc1	3%	4%
O=C(CN1C(=O)C(=O)N(CCC2=CCCCC2)C1=O)c1c[nH]c2ccccc12	u	-39%
O=C(CCCCCNC(=O)N1CCn2c1nc1ccccc12)N[C@H](C(=O)O)c1ccccc1	-4%	-3%
COc1cccc(CC2(CO)CCN(C(=O)NCCc3ccccc3)CC2)c1	-13%	-2%
COC(=O)C(C#N)C(=C1C(=O)CC(C)(C)CC1=O)c1ccc(O)cc1 (stereo unspecified)	-11%	i
COc1ccc(C2CC(C(F)(F)F)n3nc(C(=O)O)c(Br)c3N2)cc1 (stereo unspecified)	-6%	x
CC1CCc2cc(F)ccc2N1S(=O)(=O)c1ccc(Cl)nc1 (stereo unspecified)	u	u
CCCCn1c(-c2csc(CC)c2)n[nH]c1=S	-8%	-20%
O=C1OCCC1Sc1nnnn1-c1ccc(Cl)cc1 (stereo unspecified)	-9%	-3%
CC(C)C1/C(=N/O)CC(c2ccccc2)NC1c1ccccc1 (stereo unspecified)	-12%[7.34 µM]	-2%[7.34 µM]
C=CCn1c(SCC(=O)c2c(C)[nH]c3ccccc23)nnc1-c1ccncc1	3%	-1%
Cc1ccn(CC(=O)N2CCCC(Nc3ccc(F)c(F)c3)C2)n1 (stereo unspecified)	-4%	-15%
COc1ccc(CCNC(=O)C23CN(Cc4ccccc4)CC2C(c2ccc([N+](=O)[O-])cc2)=NO3)cc1 (stereo unspecified)	-20%	u
O=c1[nH]c2ccccc2nc1C(F)(F)F	-5%	i
Cc1c(NS(=O)(=O)c2ccc(Br)s2)c(=O)n(-c2ccccc2)n1C	6%	x
OCCCCNCc1ccc(OCc2ccccc2Cl)cc1	-19%	-22%
CCCCNC(=O)CNC(=S)N(Cc1ccc(C)cc1)Cc1ccco1	-10%	-7%
COc1ccc(OC)c(CCNC(=O)CN2C(=O)COc3ccc(S(=O)(=O)N4CCOCC4)cc32)c1	-25%	-17%
COc1cc(C(=O)NC(=S)Nc2cccc(-c3cc4ccccc4oc3=O)c2)cc(OC)c1OC	-14%	x
CCNS(=O)(=O)c1ccc(NC(=O)c2ccccc2OCC)cc1	-10%	-15%
CCn1c(SCC(=O)Nc2ccc(NC(C)=O)cc2)nc2c([nH]c3ccccc32)c1=O	-5%	i
NC(=O)C1CCCN(C(=O)CCC(=O)c2cccs2)C1 (stereo unspecified)	-4%	-5%
CC(=O)Nc1ccc(C(=O)N(C)c2ccccc2)cc1	-5%	x

Quoted from the listing.
`CCNS(=O)(=O)c1ccc(NC(=O)c2ccccc2OCC)cc1` @ VACV mCherry inh: -15%
`OCCCCNCc1ccc(OCc2ccccc2Cl)cc1` @ VACV mCherry inh: -22%
`COc1cc(C(=O)NC(=S)Nc2cccc(-c3cc4ccccc4oc3=O)c2)cc(OC)c1OC` @ VACV Venus inh: -14%

Continuation.
SMILES	VACV Venus inh	VACV mCherry inh
Cc1cc(C)nc(SCC(=O)N2CCCCC2)n1	-7%	x
CC(C)(C)C(=O)NC1CC2CCCC(C1)N2C(=O)Nc1ccc(Cl)cc1 (stereo unspecified)	-3%	i
Cc1c(Cl)c(=O)oc2cc(OCC(=O)N3CCCC(C)C3)ccc12 (stereo unspecified)	-16%	-7%
CN(C1CCS(=O)(=O)C1)S(=O)(=O)c1cccc2nsnc12 (stereo unspecified)	-23%	x
Cc1ccc(-c2nc3ccccc3s2)cc1S(=O)(=O)N1CCCC1	-26%	i
CCCn1c(N)c(C(=O)CSc2nnc(Cc3cccs3)n2C2CC2)c(=O)[nH]c1=O	-9%	i
CCOCC(=O)Nc1sc2c(c1C(=O)OCC)CCCC2	-3%	-21%
Cc1ccc(CN(C)c2ccc(S(=O)(=O)N3CCCC3)cn2)cc1	-7%	-15%
CC(C)(C)OC(=O)NCCCCCNC(=O)c1[nH]cnc1C(=O)N[C@@H](CCCCNC(=O)OC(C)(C)C)C(=O)OC(C)(C)C	u	-21%
O=C1NC2(CCCCC2)Oc2ccccc21	-4%	x

Part of the list above, with two lines to a compound.
Value order: VACV Venus inh | VACV mCherry inh
Cc1ccc(CN(C)c2ccc(S(=O)(=O)N3CCCC3)cn2)cc1
  -7% | -15%
CN(C1CCS(=O)(=O)C1)S(=O)(=O)c1cccc2nsnc12 (stereo unspecified)
  -23% | x

(continued)
SMILES	VACV Venus inh	VACV mCherry inh
CC1(C)C(C(Cl)Cl)C2(Cl)C(Cl)C(Cl)C1(Cl)C2(Cl)Cl (stereo unspecified)	0%	15%
OC1C=C2CCN3Cc4cc5c(cc4C(C1O)C23)OCO5 (stereo unspecified)	7.1µM*	u
COC(=O)c1ccc(Cn2c(SCC(=O)N(C)c3ccccc3)nc3ccccc32)cc1	-6%	-4%
Cc1c(NC(=O)CN2C(=O)C3C4C=CC(C4)C3C2=O)c(=O)n(-c2ccccc2)n1C (stereo unspecified)	-19%	i
CCC(C)NC(=O)CS(=O)Cc1nc(-c2cccc(C)c2)oc1C (stereo unspecified)	0%	i
COc1ccc(NC(=O)NC(C)c2ccccc2)cc1 (stereo unspecified)	-14%	-14%
CC(C)NC(=O)C1(C)CCN1C(=O)c1ccc2c(c1)OCO2 (stereo unspecified)	-3%	29%
CCCCCc1ccc(OCCCC[n+]2cccc(C)c2)c(CCCCC)c1	u	u
Cc1ccc(CNC(=O)C(=O)NCCC2CCCCN2S(=O)(=O)c2ccc(C)cc2)cc1 (stereo unspecified)	u	u
Cc1cc(C(=O)Nc2ncc(C)s2)c2ccccc2n1	-4%	-10%
COc1ccccc1-n1c(C)cc(SC)c(C(C)=O)c1=S	-23%	x
CCc1nc(SCC(=O)OC(C)C)c2ccccc2n1	-7%	-6%
COc1c(S(=O)(=O)Nc2cccnc2)ccc(Cl)c1Cl	7%	-3%
CCOc1ccccc1Nc1sc(C(=O)c2ccccc2)c(N)c1S(=O)(=O)c1ccc(C)cc1	-15%	-11%
COc1ccc(C(C)C)cc1-c1cccc2nncn12	1%	-1%
Cc1cccc(-c2nnc(NC(=O)c3ccco3)s2)c1	-8%	i
COc1ccc(CNC(=O)c2cc3c(-c4ccc(Cl)cc4)nn(C)c3s2)cc1	-10%	-12%
CCOC(=O)C1CCN(C(c2ccccc2OC)c2c(O)cc(C)n(CCOC)c2=O)CC1 (stereo unspecified)	-9%	-13%
O=C(NCc1cccc(F)c1)C1CCN(c2nn3cc(-c4ccc(F)cc4)nc3s2)CC1	-16%	-8%
COc1ccc2oc(C(=O)OCC(=O)N(C)Cc3ccccc3)c(C)c2c1	-17%	-6%
COC(=O)c1ccc(C(=O)OC)c(NC(=O)CN(c2ccccc2)S(=O)(=O)N(C)C)c1	-13%&3%	-5%&-6%
CC1(O)C(c2ccccc2)=Nc2ccccc21 (stereo unspecified)	-6%	-4%
COc1cccc(NS(=O)(=O)c2ccc3[nH]c4c(c3c2)CCCCCC4)c1	-14%	i
CCN(CC)c1ccc(NC(=O)c2ccccc2)cc1S(=O)(=O)Nc1ccccc1OC	-19%	i
CCOn1c(=O)c(-c2ccccc2)[n+]([O-])c2ccccc21	-4%	i
CCOC(=O)c1c(C)n(C)c2ccc(O)c(CN(C)C)c12	-28%	x
Cc1ccc(C)c(CN2C(=O)C(=O)c3ccccc32)c1	-8%	-8%
COc1ccc(CC(NC(C)=O)C(=O)NC2CCN(S(=O)(=O)c3ccc(NC(C)=O)cc3)CC2)cc1 (stereo unspecified)	-17%	-16%
CCOC(=O)CSc1nnc(-c2ccoc2C)n1-c1ccc(OCC)cc1	12%	-1%
CC1CCN(C(=O)c2ccc(N(C)S(C)(=O)=O)cc2)CC1	1%	x
O=C(O)c1cccc(NC(=O)c2ccc3c(c2)C(=O)N(Cc2ccco2)C3=O)c1	-6%	u
COc1ccc(S(=O)(=O)n2nc(OC(=O)c3ccco3)cc2N)cc1	-13%	-14%
COc1cc(OC)c(C(=O)OC(C)C(=O)Nc2cccc(C(F)(F)F)c2)cc1OC (stereo unspecified)	-19%	-11%
COc1cccc(N2CC(NC(=O)c3ccc(S(=O)(=O)N4CCCCC4)cc3)CC2=O)c1 (stereo unspecified)	-3%[7.34 µM]	-11%[7.34 µM]
COCCn1c(SCC(=O)c2c[nH]c3ccccc23)nc2cc(C(=O)NC(C)C)ccc2c1=O	-13%	-20%
C/C(=N\NS(=O)(=O)c1ccc(Br)cc1)c1ccc2c(c1)OCO2	4%	-13%
COc1cc(/C=N/NC(=O)c2cccnc2)ccc1OCC(=O)Nc1ccccc1Cl	0%	i
O=C(CSc1ncnc2c1nnn2Cc1ccccc1)NC1CCCCC1	-8%	-16%
CCOC(=O)c1ccc(N(CCC2CO2)S(=O)(=O)c2ccc(C)cc2)cc1 (stereo unspecified)	-9%	i
Cc1nn(-c2nccs2)c2c1C(=O)CC(C)(C)C2Br (stereo unspecified)	u	-29%

Whole records, quoted from the list. Values in the order: VACV Venus inh	VACV mCherry inh
Record of `C/C(=N\NS(=O)(=O)c1ccc(Br)cc1)c1ccc2c(c1)OCO2` : 4%	-13%
Record of `COc1cc(OC)c(C(=O)OC(C)C(=O)Nc2cccc(C(F)(F)F)c2)cc1OC` (stereo unspecified) : -19%	-11%
Record of `COCCn1c(SCC(=O)c2c[nH]c3ccccc23)nc2cc(C(=O)NC(C)C)ccc2c1=O` : -13%	-20%
Record of `COc1ccc(S(=O)(=O)n2nc(OC(=O)c3ccco3)cc2N)cc1` : -13%	-14%
Record of `COc1cc(/C=N/NC(=O)c2cccnc2)ccc1OCC(=O)Nc1ccccc1Cl` : 0%	i

Later entries:
SMILES	VACV Venus inh	VACV mCherry inh
CN1CCN(c2ccc3c(c2)S(=O)(=O)c2ccccc2C3=O)CC1	u	-14%
C=CCn1c(SCC(=O)c2[nH]c(C)c(C(=O)OCC)c2C)nc2scc(-c3ccc(OC)c(OC)c3)c2c1=O	-5%	-3%
CCN(C(=O)CSc1nc2ccccc2n1CC(=O)N(C)C1CCCCC1)c1ccccc1	-12%	-18%
Cc1ccc(S(=O)(=O)N2CCN(Cc3ccsc3)CC2)cc1	u	u
COc1ccc(N=Nc2cc(-c3ccccc3)ccc2O)cc1	-7%	u
COC(=O)/C(=C/Nc1cccc2ccccc12)[N+](=O)[O-]	-12%	-6%
COCCNC(=O)c1nn2c(C(F)(F)F)cc(-c3ccccc3)nc2c1Br	-8%	-1%
O=C(c1ccc(NS(=O)(=O)c2ccc3[nH]c(=O)[nH]c3c2)cc1)N1CCN(c2ccccc2O)CC1	-2%	u
CCCCn1c(SCC(=O)NC2CC2)nnc1-c1ccncc1	3%	6%
C=C(C)COc1ccc(-c2nc(N)ncc2Oc2ccccc2OC)c(O)c1	-27%	u
CCOc1ccc(CC(=O)NCc2ccc3c(c2)cc(C)n3C)cc1	-3%	-15%
O=C(Nc1cccc(C(F)(F)F)c1)c1cccnc1N1CCN(c2ccccc2)CC1	-13%	-28%
N#Cc1c(N)sc2c1CCCCCC2	-17%	i
Cc1ccccc1C1c2[nH]c3ccccc3c2C[C@H]2C(=O)N(c3ccccc3C(=O)NCCN3CCOCC3)C(=O)N12 (stereo partly specified)	14%	2%
COc1cccc(CN2CCN(Cc3ccc4c(NC(C)=O)cccc4n3)CC2CCO)c1 (stereo unspecified)	-3%	-13%
CC1=C(/C=C/C(C)=C/C=C/C(C)=C/C(=O)O)C(C)(C)CCC1O (stereo unspecified)	-14%	-3%
COc1cccc(-c2coc3cc4oc(=O)c(CCC(=O)O)c(C)c4cc23)c1	-8%	-9%
COC(=O)c1cccc(NC(=S)Nc2ccccc2Cl)c1	-5%	-21%
CCOc1ccc(CNC(=O)Cn2c(=O)c3cccn3c3ccccc32)cc1	-8%&-15%	-7%
CC12CCC(C(=O)Nc3cc(Cl)ccc3Cl)(C(Br)C1=O)C2(C)C (stereo unspecified)	-21%	-26%
